From PubChem
TRPML1 blocker – inhibitors of human TRPML1 channel. Q9GZU1. TRPML1-inducible cells, Ca2+ dye fluorescence, FDSS; active compounds read low; inhibition of EC80 agonist-evoked calcium signal. activity change, negative = inhibition, % (test concentration not listed). hit rate 0.02% among 390,000; in the data active means activity change below about -50%; inconclusive means about -30% to -50%; inactive means above about -30%;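 note: stimulus is agonist 54-4 at its EC80 concentration; % is set by controls: 0 for no effect and ±100 for the full control effect; compound concentration not given in the record; the text of the record puts the active cut at -80%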
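TRPML1-DL cells, Tet-induced overnight (~16 h, 37 °C) at 1,500 cells/well, were loaded with Ca8 no-wash dye plus quencher for 45-90 min at room temperature. Compounds were pinned during FDSS kinetic reading; agonist 54-4 at EC80 (4 uM final) then added.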
Sfp PPTase inh – inhibitors of Bacillus subtilis Sfp phosphopantetheinyl transferase; Q9F4F7; Biochemical Sfp PPTase activity, qHTS; Potency, µM, for the others: max response, negative = inhibition, most hits filed as inhibitors; hit rate 3.5% among 310,000; AID 1490; active = well fitted inhibition curve with a large enough effect; inconclusive = small, poorly fitted or top-dose-only effect, or another doubt; inactive = no such curve, though single readings can be large or run the other way;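 note: the enzyme is Sfp with the accession as filed and its product quenches rhodamine fluorescence; potency is the fitted concentration of half-maximal effect; 0% = enzyme reaction without inhibitor and -100% = no enzyme wells; top concentration of the series not given in the record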
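Buffer: 50 mM Hepes-Na pH 7.6, 10 mM MgCl2, 0.01% Nonidet P-40, 0.01% BSA. Enzyme 15 nM, pre-exposed to compound 15 min; substrates then added and fluorescence change tracked over 30 min.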
TRPML1 agonist – agonists of human TRPML1 channel; hit rate 0.12% among 410,000; activation, % (test concentration not listed); TRPML1-expressing cells, Ca2+ dye fluorescence, FDSS; host cell line not named in the record; reference of the full effect not given here; in the data active = activation above about 50%; inconclusive = about 30% to 50%; inactive = below about 30%; note: 0% is about no effect; the text of the record puts the active cut at 80%
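Calcium fluorescence on an FDSS kinetic reader gave the read-out. Tet-induced TRPML1-DL cells were plated overnight, dye-loaded (Ca8 with quencher, 45-90 min, room temperature, dark), then read 110 s after compound addition, and again 110 s after 4uM final 54-4 (EC80).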
Menin-MLL FL inh – menin-MLL binding inhibition, fluorescein peptide | Fluorescence polarization, fluorescein-MLL peptide displacement from menin | FP activity change, % at 61.4 µM | 290,000 tested, under 10 active | AID 1766; inconclusive = falling polarisation curve, or a change in total fluorescence; inactive = total fluorescence flat and polarisation flat or rising; no compound was filed as active; the % refers to the polarisation; negative = inhibition;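 note: % of control where 0% means no effect; inhibitors lower the polarisation; unlabelled MLL peptide was the positive control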
PINK1 modulator – changes PINK1 expression. PINK1 immunofluorescence, high-content cytometry, 24 h. Potency, µM (series often up to 76.6 µM), for the others: top-dose activation (PINK1 increase), usual class: activators. hit rate 0.2% among 410,000; active = well fitted activation curve with a large enough effect; inconclusive = small, poorly fitted or top-dose-only effect; inactive = flat fitted curve, though single readings scatter; cell line not stated here;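 note: potency is the fitted concentration of half-maximal effect; % of control where 0% means no effect; nearly all actives have a fitted effect of over 65% in size; a mitochondrial uncoupler was the plate control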
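Cells are seeded, rested 12 hours, then given compound at five concentrations or DMSO for 24 hours. After fixation, blocking and antibody staining, PINK1 amount and mitochondrial localization are scored; CCCP serves as control.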
ClpP mod – qHTS Assay for Activators of ClpP. ATP-dependent Clp protease proteolytic subunit (Bacillus subtilis (strain 168)), P80244. purified B. subtilis ClpP, FRET peptide cleavage, 20 min. Potency, µM (doses to about 57.5 µM), for inactives: top-dose activity change, negative = active. hit rate 1.9% among 340,000. AID 651965, 2013; active = well fitted falling curve with a large enough effect; inconclusive = small, poorly fitted or top-dose-only effect; inactive = no such curve, though single readings can be large or run the other way; note: potency is the fitted concentration of half-maximal effect; the source files actives as falling curves though it sought activators and does not explain the sign; nearly all actives have a fitted effect of over 65% in size; many hits overshoot -100%
Target sequence (P80244 whole entry, looked up): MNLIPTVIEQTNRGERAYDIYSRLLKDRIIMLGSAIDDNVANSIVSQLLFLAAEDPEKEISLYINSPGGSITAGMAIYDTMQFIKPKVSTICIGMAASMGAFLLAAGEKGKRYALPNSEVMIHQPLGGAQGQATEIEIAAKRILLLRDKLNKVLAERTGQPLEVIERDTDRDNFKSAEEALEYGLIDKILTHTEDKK
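Buffer: 100 mM Tris/HCl pH8, 100 mM KCl, 0.05% low protease BSA, 2.5% glycerol, 0.01% Tween-20. ClpP 10 microg/mL final; 20 min RT; delta FRET normalized to ADEP and DMSO controls.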
TRPV1 PAM – potentiators of human vanilloid receptor 1 (TRPV1). Q8NER1. potentiation, % at 8.33 µM. TRPV1-expressing cells, Fluo-8 calcium influx, capsaicin EC20 potentiation; host cell line not named in the record; control for the full effect not named in the record. AID 540277. hit rate 0.02% among 320,000; active means potentiation above 80%; inconclusive means 30% to 80%; inactive means below 30%; note: 0% is about no effect
Target sequence (Q8NER1 whole entry, looked up): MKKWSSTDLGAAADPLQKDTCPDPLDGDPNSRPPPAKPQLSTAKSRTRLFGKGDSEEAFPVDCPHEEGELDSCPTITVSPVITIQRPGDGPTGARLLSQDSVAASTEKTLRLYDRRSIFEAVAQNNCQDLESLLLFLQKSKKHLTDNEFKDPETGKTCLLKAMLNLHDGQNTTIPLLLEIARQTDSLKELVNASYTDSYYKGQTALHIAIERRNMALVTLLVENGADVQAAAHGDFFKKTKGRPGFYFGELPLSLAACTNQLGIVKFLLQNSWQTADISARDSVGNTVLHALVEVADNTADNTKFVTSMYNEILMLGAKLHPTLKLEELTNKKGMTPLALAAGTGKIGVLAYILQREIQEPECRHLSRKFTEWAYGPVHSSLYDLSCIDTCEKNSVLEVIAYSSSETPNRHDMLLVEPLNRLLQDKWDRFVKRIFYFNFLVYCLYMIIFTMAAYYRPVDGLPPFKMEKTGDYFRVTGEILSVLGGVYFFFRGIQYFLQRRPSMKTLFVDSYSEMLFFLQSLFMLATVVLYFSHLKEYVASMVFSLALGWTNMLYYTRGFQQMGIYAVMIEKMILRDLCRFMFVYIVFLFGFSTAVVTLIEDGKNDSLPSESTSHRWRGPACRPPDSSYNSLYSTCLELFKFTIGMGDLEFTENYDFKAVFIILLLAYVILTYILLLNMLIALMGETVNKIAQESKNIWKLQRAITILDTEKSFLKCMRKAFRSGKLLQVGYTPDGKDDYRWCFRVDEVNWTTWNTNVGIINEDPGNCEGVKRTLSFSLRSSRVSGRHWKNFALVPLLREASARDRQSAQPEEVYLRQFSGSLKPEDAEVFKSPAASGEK
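Cells expressing TRPV1 were dye-loaded with Fluo-8 and read kinetically: 10 s baseline, 3 min after compound (agonist portion), then 2 min after EC20 capsaicin (allosteric enhancer portion). Calcium-bound dye fluorescence at 480/520 nm.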
An asterisk follows results filed as active; ? = inconclusive; . = not tested or not shown; [ ] = another dose, or the depositor's remark. Not a hit list; any-hit rate near 4.4%.

SMILES	TRPML1 blocker	Sfp PPTase inh	TRPML1 agonist	Menin-MLL FL inh	PINK1 modulator	ClpP mod	TRPV1 PAM
O=C1C2C3CCC(O3)C2C(=O)N1c1cc(OCC(F)F)cc([N+](=O)[O-])c1 (stereo not given)	8	.	-0.6	.	2.4%	0.8%	11
CCc1cccc(NC(=O)[C@@H]2CCCN2C2=NS(=O)(=O)c3ccccc32)c1	-12	.	1.7	.	-0.1%	0.6%	-11
O=c1c2oc3ccccc3c2n(Cc2ccccc2)c(=O)n1Cc1ccc2c(c1)OCO2	24	.	0.8	.	2.3%	-9.7%	.
Cc1ccc(N2C(=O)C(CC(=O)Nc3cccc(F)c3)N(CCc3ccncc3)C2=O)cc1 (stereo not given)	-3	13%	0.0	-0.3	-1.5%	-2.5%	?
O=C(Nc1cc(S(=O)(=O)N2CCCC2)ccc1OCC(F)(F)F)c1ccncc1	13	.	-1.3	.	7.8%	-0.3%	.
COc1cc(C(=O)NCC(=O)N/N=C/c2c(C)[nH]c3ccccc23)cc(OC)c1OC	3	10%	1.0	1.8	7.7%	0.1%	-5
COc1ccc(CC(=O)NNC(=O)c2ccccc2)cc1OC	4	.	-0.5	.	1.7%	-3.4%	.
Cc1ccc([N+](=O)[O-])cc1S(=O)(=O)N1CCCC1	26	7%	0.4	-3.8	-0.5%	-3.5%	5
CCOC(=O)C1=C(CC)Nc2ccccc2N=C1NC(=O)CCN1C(=O)C2CCCCC2C1=O (stereo not given)	7	8%	0.3	4.0	3.1%	.	-7
COc1cccc(-c2ccc3nccn3c2)c1	5	.	0.6	.	-1.1%	-6.1%	.
CCOC(=O)N1CCN(C(=O)c2ccc(NC(=O)CC)cc2)CC1	14	19%	0.2	2.1	.	-1.7%	0
CCn1c(=O)n(CC)c2cc(N3CCCCC3)c(NC(=O)Nc3cc(C)cc(C)c3)cc21	13	.	1.1	.	1.3%	?	.
Nc1nc(Cl)nc(N(c2ccccc2)c2ccccc2)n1	1	2%	-0.9	4.0	-1.1%	-2.2%	5
Cc1ccc(NS(=O)(=O)c2cccc3nsnc23)cc1C	-11	11%	-0.4	-1.4	4.5%	4.0%	17
O=C(Nc1ccccc1C(=O)NCC1CCCO1)c1ccco1 (stereo not given)	-1	11%	-0.3	-0.4	?	-5.6%	5
CCn1cc2nc(SCc3cccc(OC)c3)n(Cc3ccc(Cl)cc3)c(=O)c2n1	9	.	-0.4	.	1.9%	-4.2%	.
COc1ccc(-c2nc3c(c(SCC(=O)N4CCCCC4)n2)Cc2cc(Cl)ccc2O3)cc1	-4	.	-0.6	.	-0.3%	0.5%	.
C/C(=N\Nc1ccccn1)c1ccc(N2CCOCC2)cc1	-3	5%	-0.4	0.3	-1.9%	.	-17
O=C(Cn1c(=O)n(Cc2ccccc2)c(=O)c2sc3ccccc3c21)NCc1ccccc1Cl	0	.	2.1	.	1.0%	-15%	.
COc1ccc(NC(=O)COC(=O)c2cc(C)oc2C)c([N+](=O)[O-])c1	2	.	-1.3	.	11%	1.2%	17
CCOc1c(Cl)cc(Cl)cc1CNCCNCCO	-12	-2%	0.7	1.3	?	-1.2%	6
O=C(CNS(=O)(=O)c1c(Cl)cccc1Cl)OCc1csc(-c2ccccc2)n1	-16	8%	2.1	0.4	4.7%	-2.1%	8
CCCCOc1ccccc1NC(=O)c1scc2c1OCCO2	-1	-10%	2.7	-0.2	0.2%	.	11
Cn1cc(S(=O)(=O)N2CCc3ccccc3C2)c(=O)n(C)c1=O	4	23%	0.1	5.2	-1.3%	-1.7%	11
CC(C)(C)OC(=O)N[C@H](C(=O)OC(C)(C)C)c1ccccc1	44	.	-0.9	.	2.7%	2.9%	-24
CC(=O)Nc1ccc(S(=O)(=O)N(C)CC(=O)OCC(=O)Nc2cc(C)on2)cc1	22	.	0.0	.	-1.6%	-1.9%	9
Cc1cc(C)c(S(=O)(=O)NCCc2ccncc2)c(C)c1	.	8%	.	-2.7	3.8%	-1.6%	13
O=S1(=O)CC(N2CCN(CC3CC3)CC2)CN1Cc1ccc(F)cc1 (stereo not given)	.	.	-0.6	.	0.7%	1.0%	.
O=C(Nc1nc(-c2ccccc2Cl)cs1)c1cccnc1	-10	-10%	0.1	0.0	3.5%[38.3 µM]	-0.7%	-9
O=C1NCCCC1C(=O)Nc1cccc(C(F)(F)F)c1 (stereo not given)	-15	1%	0.6	-1.9	1.1%	-0.9%	13
CC(C(=O)N1CCOCC1)N1C(=O)C2C3C=CC(C4CC34)C2C1=O (stereo not given)	31	17%	-0.5	0.3	0.6%	.	9
Cc1ccc(CN2C(=O)c3ccccc3Sc3ccc(C(=O)NCCN4CCOCC4)cc32)cc1	-9	-5%	1.1	-14	2.6%	-3.3%	-8
CN(CC(=O)Nc1ccccc1Cl)C(=O)COC(=O)c1cccs1	21	.	0.4	.	-2.0%	-2.2%	.
COCCCNC(=O)CCCCCNS(=O)(=O)c1ccc(Br)cc1	-1	4%	-0.4	0.1	-0.3%	.	-9
CCN(CC)S(=O)(=O)c1cc(C(=O)Nc2nncs2)c(Cl)cc1Cl	-4	-2%	-0.2	1.8	5.2%[38.3 µM]	-3.9%	15
O=C(NNC(=S)Nc1ccc(Br)cc1Cl)c1ccncc1	4	23%	-0.5	3.9	-0.7%	-6.2%	-2
COC(=O)C1=CN(C)C=C(C(=O)OC)C1c1ccc(O)c(OC)c1	26	?	0.9	1.7	0.4%	-11%	10
Cc1ccc(/C=N/NC(=O)Cc2cccn2C)s1	-16	1%	0.1	0.1	3.6%	-0.8%	-6
O=C(COc1ccc2c(c1)oc(=O)c1ccccc12)NC(Cc1ccc(Cl)cc1)C(=O)O (stereo not given)	.	7%	.	-3.4	0.0%	4.7%	9
CC1=CC(=C(C#N)C#N)C=C(C)N1Cc1ccc(Cl)cc1	12	-11%	0.2	-3.0	4.0%	.	4
COc1ccc2c(c1)OC[C@H]1[C@H]2N2C(=O)c3cc(OC)ccc3NC(=O)[C@@]2(C)[C@H]1c1ccccc1	36	.	0.3	.	8.4%	?	22
Cc1ccc(S(=O)(=O)c2cn(CC(=O)Nc3cccc(C)c3)c3cc4c(cc3c2=O)OCO4)cc1	45	.	1.3	.	-1.0%	3.3%	.
O=C(O)c1ccc(NS(=O)(=O)c2ccc(C(=O)Nc3ccccc3)cc2)cc1	-13	14%	0.2	.	-2.7%	-5.0%	-17
COc1cccc(Cn2c(=O)c(C)nc3cnc(N(C)C)nc32)c1	.	-8%	.	8.5	-0.9%	.	.
CCOc1ccc(OCCC(=O)NNC(=O)c2ccncc2)cc1	-4	.	0.9	.	2.1%	7.9µM*	0
Cn1cccc1C(=O)N1CCC[C@@]2(CCN(c3ccccn3)C2)C1	.	12%	.	1.5	-0.6%	.	.
COc1ccc(Cl)cc1C(=O)Nc1ccc(NC(=O)C(C)C)cc1	-28	14%	-0.2	-1.1	11%	1.6%	-2
Cc1ccc(-c2noc(-c3ccc(N4CCCCC4C)c([N+](=O)[O-])c3)n2)cc1 (stereo not given)	-21	.	-0.4	.	0.2%	-0.9%	.
CN(C)S(=O)(=O)c1cccc(COC(=O)c2cccnc2Cl)c1	10	5%	1.3	2.7	5.8%	.	-2
CCCN1CCN(C(=O)c2noc3c2COc2ccc(C)cc2-3)CC1	1	-11%	-0.1	-4.7	11%	-17%	2
COc1ccc(S(=O)(=O)N2CCC(Nc3ccccc3Cl)CC2)cc1	-18	12%	3.2	.	-0.6%	1.5%	8
CN1CCN(S(=O)(=O)c2ccc(NC(=S)NC(=O)C3CCC3)cc2)CC1	5	0%	-0.3	-0.1	-1.6%	0.8%	-13
COc1ccc(-n2cnnc2SCc2cnc(-c3ccccc3)s2)cc1	14	7%	-0.6	0.7	-3.3%	-11%	-2
COc1ccccc1OCCC(=O)OCC(=O)Nc1ccc(S(=O)(=O)N2CCOCC2)cc1	-9	31%[activator]	-0.2	-0.3	-1.3%	.	10
Cn1c(=O)[nH]c(=O)c2c1nc(N/N=C/c1cccnc1)n2Cc1ccc(Cl)cc1	-12	11%	1.3	4.0	9.5%	.	14
CC(=O)c1cn(Cc2ccccc2)c(=O)n(Cc2ccc(F)cc2)c1=O	-2	0%	-0.4	2.2	0.4%	.	-15
CC(=O)Oc1ccc(C(=O)Cc2ccc3ccccc3n2)c(O)c1C	8	13%	6.4	?	0.8%	-2.2%	0
CCOc1cccc(C=NCCc2ccc(OC)c(OC)c2)c1O	-10	0%	-0.9	4.1	0.2%	0.4%	2
Cc1ccc(B(O)O)cc1	.	17%	-1.0	3.3	1.0%	-1.0%	.
Nc1nc(N)nc(-c2cccc(Cl)c2)n1	9	.	-0.4	.	-1.4%	-1.5%	2
Remaining list, next part:
SMILES	TRPML1 blocker	Sfp PPTase inh	TRPML1 agonist	Menin-MLL FL inh	PINK1 modulator	ClpP mod	TRPV1 PAM
COc1ccc(CC(=O)NCC(c2ccc(N(C)C)cc2)N2CCOCC2)cc1 (stereo not given)	-5	.	-0.9	.	-0.5%	-0.5%	.
CCOC(=O)N1CCC(NC(=O)c2ccc3nc4ccccc4c(=O)n3c2)CC1	.	3%	.	1.4	.	.	1
NC(=O)c1ccc(NC(=O)COC(=O)CCC(=O)c2ccc(Cl)cc2)cc1	27	-3%	0.8	-0.7	0.3%	2.3%	5
Cc1ccc(S(=O)(=O)N(C)C)cc1NC(=O)c1cc(=O)[nH]c2ccccc12	-6	1%	-0.9	2.3	1.7%	-19%	3
COc1ccc(C(=O)C(C)C(C)=O)c(OCc2ccccc2)c1OC (stereo not given)	23	.	1.8	.	-1.2%	-2.4%	.
Cc1ccc2sc(C)cc(=O)c2c1	15	.	1.6	.	0.9%	?	.
CCOC(=O)CN1C(C(=O)c2ccccc2)=C(OC(=O)C(C)(C)C)c2ccccc2S1(=O)=O	21	.	1.9	.	10%	0.4%	.
CC(Sc1nn(-c2ccc(Cl)cc2)c(=S)s1)C(=O)NCC1CCCO1 (stereo not given)	-19	.	0.0	.	-1.7%	-1.4%	12
O=C(Nc1ccc(Br)cn1)C1CCCN1S(=O)(=O)c1ccccc1 (stereo not given)	-10	-22%	-0.4	3.3	3.0%	1.9%	-1
CCC(=O)N1CCc2cc(S(=O)(=O)NCCC(=O)Nc3ccc(OC)c(Cl)c3)ccc21	3	.	-1.2	.	0.9%	0.8%	.
